Screens (PubChem BioAssay)
HSV replic up: increases HSV replication in cells; HSV replication augmentation in cells, fold increase; maximum fold increase; actives 0.005% (n = 220,000); AID 1956;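 active means peak rise of 1.5-fold or more in the series; inconclusive means self-fluorescent or not available for retest; tested in PC3 cells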;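 further: first round at 10 µM; read as green reporter fluorescence; hits show the peak of a series up to 25 µM; 1 = signal of infected wells without compound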
RGS16-Gao: modulates binding between human RGS16 and Galphao; AID 1441; bead-based flow cytometry RGS16-Galphao binding, fluorescence; actives lie on both sides; actives 0.38% (n = 220,000); O15492+P09471; binding response (% of control), % at 10 µM;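 active means below 25% or above 175%, edge rows of some plates excepted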;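 further: Galphao activated by GDP with aluminum fluoride before binding; 100% = wells without compound and 0% = beads without RGS; some results beyond the cut were filed as inactive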
Target sequence (O15492 whole entry, looked up): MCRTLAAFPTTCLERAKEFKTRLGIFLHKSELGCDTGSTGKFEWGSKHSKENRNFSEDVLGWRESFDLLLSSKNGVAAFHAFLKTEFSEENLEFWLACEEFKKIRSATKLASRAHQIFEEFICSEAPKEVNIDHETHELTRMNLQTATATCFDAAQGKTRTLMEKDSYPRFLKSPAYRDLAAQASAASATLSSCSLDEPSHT
Target sequence (P09471 whole entry, looked up): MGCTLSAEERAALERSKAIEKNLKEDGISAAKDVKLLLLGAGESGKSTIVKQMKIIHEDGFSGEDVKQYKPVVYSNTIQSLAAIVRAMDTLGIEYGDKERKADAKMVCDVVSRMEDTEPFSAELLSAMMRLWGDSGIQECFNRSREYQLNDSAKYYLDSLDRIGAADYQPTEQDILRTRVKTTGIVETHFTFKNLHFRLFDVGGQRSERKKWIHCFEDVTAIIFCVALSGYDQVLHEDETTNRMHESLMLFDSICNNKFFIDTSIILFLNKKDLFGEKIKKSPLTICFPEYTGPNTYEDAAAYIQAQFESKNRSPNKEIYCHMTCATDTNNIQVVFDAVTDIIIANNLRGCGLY
HSV replic up primary fold: second read-out of HSV replic up, no call of its own (marks repeat the call); fold increase; compound at 10 µM; measured here: primary screen fold increase 10 uM; tested in PC3 cells;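 GFP signal in the first replicate; 1 = infected wells without compound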
Active calls of the source: *; i = inactive; ? = inconclusive; nt = not tested or not shown. Some of the compounds tested; the hit share may differ from the screen's.

SMILES	HSV replic up	HSV replic up primary fold	RGS16-Gao
CC1OC(O[C@H]2CC[C@]3(C)C4C=C[C@]56OC[C@@]7(CC[C@@H](C)[C@H](C)C75)[C@H](O)C[C@@]6(C)[C@]4(C)CC[C@H]3C2(C)C)C(OC2OC(CO)C(O)C(O)C2OC2OCC(O)C(O)C2O)C(O)C1O (stereo partly specified)	nt	nt	107
O=C(O)/C=C/C(=O)Nc1ccc(-n2ccc(C(F)(F)F)n2)cc1	nt	nt	109
Oc1cccc(Nc2nc(O)c(/C=C3\C=Nc4ccccc43)s2)c1	nt	nt	105
COc1cc(/C=C(\C#N)c2ccccn2)cc(OC)c1O	nt	nt	102
CC1OC(OC2C(OC3C(O[C@H]4CC[C@]5(C)C6C=C[C@]78OC[C@@]9(CC[C@@H](C)[C@H](C)C97)[C@H](O)C[C@@]8(C)[C@]6(C)CC[C@H]5C4(C)C)OC(C)C(O)C3O)OC(CO)C(O)C2O)C(O)C(O)C1O (stereo partly specified)	nt	nt	90
COc1cccc(C(=O)NCC2CCCO2)c1 (stereo unspecified)	nt	nt	103
Cc1cc(NC(=O)c2noc3c2CCc2ccccc2-3)no1	nt	nt	101
Cc1cc(Oc2ccccc2)nc2ccc(O)cc12	nt	nt	99
COc1ccc(-c2[nH]ncc2CN(Cc2nccn2C)C(C)C)cc1F	nt	nt	100
CO[C@H]1C[C@@H]2CC[C@@H](C)[C@@](O)(O2)C(=O)C(=O)N2CCCC[C@H]2C(=O)O[C@H]([C@H](C)C[C@@H]2CC[C@@H](O)[C@H](OC)C2)CC(=O)[C@H](C)C=C(C)[C@@H](O)[C@@H](OC)C(=O)[C@H](C)C[C@H](C)C=CC=CC=C1C	nt	nt	103
Cc1nc(C)c(C)nc1C	nt	nt	101
COc1cc2cc(Oc3ccc4ccc(=O)oc4c3)c(=O)oc2cc1OC(=O)C=C(C)C	nt	nt	106
Nc1c(C(=O)c2ccccc2)sc2nsc(SCCN3CCCC3)c12	nt	nt	105
O=C1Cc2cc(CCN3CCN(c4nsc5ccccc45)CC3)c(Cl)cc2N1	nt	nt	102
CC(C)(C)c1ccc(Oc2ccc(N)cn2)cc1	nt	nt	100
O=C(O)CCc1cc(I)c(Oc2ccc(O)c(I)c2)c(I)c1	nt	nt	97
CC(C)[C@H](NC(=O)c1ccco1)C(=O)OCC(=O)Nc1ccc(Cl)c(S(=O)(=O)N(C)C)c1	nt	nt	97
CCCCCCN(C(=O)CCCCCN1C(=O)NC(c2cccc([N+](=O)[O-])c2)C(C(=O)OCc2ccccc2)=C1C)C(C(=O)NCCCC)c1ccc(OCC(=O)OC)c(C(=O)OC)c1 (stereo unspecified)	nt	nt	91
c1ccc2c(c1)CCN(c1ncnc3c1[nH]c1ccccc13)C2	nt	nt	97
CCN(Cc1cc2cccc(C)c2[nH]c1=O)C(=O)c1ccccc1OC	i	0.97	nt
CCOC(=O)C1Nc2c(F)cc(C)cc2C2C=CCC12 (stereo unspecified)	i	0.88	nt
COc1ccc(C2/C(=C(\O)c3ccc4c(c3)OCCO4)C(=O)C(=O)N2CCCN(C)C)c(OC)c1 (stereo unspecified)	i	0.96	nt
COC(=O)c1ccc2ccccc2n1	i	1.1	nt
CC1(c2nnc(-c3ccncc3)o2)CC(c2ccccc2)=NO1 (stereo unspecified)	i	1	nt
CN1CCN(C(=O)C2=C[C@H](c3ccc(C(F)(F)F)cc3)C[C@H](OCCCCO)O2)CC1	i	0.8	nt
CC#CCN1c2ccccc2[C@]23C[C@@H](C(=O)OC)N(C(=O)NCCBr)C2=NC(C(=O)OC)=C(C(=O)OC)[C@H]13	i	0.82	nt
CC1(OC(=O)CCc2ccccc2)C(=O)C=C2C=C(C3CC3)OC=C2C1=O (stereo unspecified)	i	0.86	nt
COC(=O)c1c(-c2ccc(OC)cc2)oc2ccc(-c3cc(OC)c(OC)c(OC)c3)cc12	i	0.95	nt
CCO[C@H]1OC(C(N)=O)=C[C@@H](C(C)(C)C)[C@@H]1CCCO	i	0.65	nt
CCC/C=C(\CCC)C(NC(=O)CCc1ccccc1)c1ccc(C(F)(F)F)cc1 (stereo unspecified)	i	0.83	nt
Cc1ccccc1CN1C(=O)[C@@H]2Cc3c([nH]c4ccccc34)C(C)(C)N2C1=O	i	0.89	nt
COc1cc([C@@H]2c3cc4c(cc3[C@@H](O[C@@H]3O[C@@H]5CO[C@@H](C)O[C@H]5[C@H](O)[C@H]3O)[C@H]3COC(=O)[C@H]23)OCO4)cc(OC)c1O	i	0.7	nt
CCOC(=O)CN1C(=O)N[C@@H](CCc2ccccc2)C(C(=O)OC)=C1C	i	1.1	nt
CCOC(=O)C1=C(C)N(CCCC(=O)O)C(=O)NC1c1ccccc1 (stereo unspecified)	i	0.86	nt
Cc1nc(-c2ccccc2)sc1C1(C)CC(c2cccc(F)c2)=NO1 (stereo unspecified)	i	1.2	nt
Cc1ccc(C)c(NC(=O)Cn2nc(C)c3ccccc3c2=O)c1	i	0.89	nt
CC(C)c1cc(-c2cc(C(=O)Nc3ccccc3)on2)nc(NC2CCCC2)n1	i	0.72	nt
CCOCCCNC(=O)c1cc2c(=O)n3cccc(C)c3nc2n1C	i	0.51	nt
CCCC/C=C/C(NC(=O)c1ccc(C(=O)OC)cc1)c1ccccc1 (stereo unspecified)	i	0.9	nt
COc1ccc(CN2[C@@H](CC(=O)O)c3cc(F)ccc3S2(=O)=O)cc1	i	0.82	nt
C=CCOC(=O)C1=C[C@@H](c2csc3ccccc23)C[C@@H](OCCCCO)O1	i	0.62	nt
CCn1c(SCC(=O)N2CCc3ccccc32)nc2c(c1=O)SC(C)C2 (stereo unspecified)	i	0.94	nt
COCC1=C(C(=O)OC(C)OC(=O)OC(C)C)N2C(=O)[C@@H](NC(=O)/C(=N\OC)c3csc(N)n3)[C@H]2SC1 (stereo partly specified)	i	0.93	nt
COc1ccc([C@@H]2COc3c(ccc4c3C=CC(C)(C)O4)C2)c(OC)c1	i	0.98	nt
COC(C[C@H]1O[C@@H]1C(=O)COCc1ccccc1)OC	i	1.1	nt
O=C(NCc1nc2ccccc2[nH]1)C1=C[C@H](c2coc3ccccc3c2=O)C[C@H](OCCCCO)O1	i	0.73	nt
Nc1nc2n[nH]nc2c(=O)[nH]1	i	0.94	nt
CC(C)[C@H]1COCCS(=O)(=O)N1Cc1ccccc1F	i	0.84	nt
Cc1ccc(Cn2c(CCNc3nc(-c4ccc(Cl)c([N+](=O)[O-])c4)cs3)nc3cc(C(=O)NCCCO)ccc32)cc1	i	1	nt
C/C=C1\COC(C(=O)NCCCN2CCCC2=O)(C(F)(F)F)C=C1C=C(C)C (stereo unspecified)	i	0.92	nt
c1ccc(-c2nnc(C3CC(c4ccncc4)=NO3)o2)cc1 (stereo unspecified)	i	0.91	nt
CCCCCCCCCCCCN1[C@@H](CC(=O)OC)c2cc(C(F)(F)F)ccc2S1(=O)=O	i	0.58	nt
C=CCC1(C(=O)N(C)Cc2ccccc2)CCN(C(=O)OC(C)(C)C)CC1	i	0.96	nt
CC(=O)C[C@H]1c2ccccc2S(=O)(=O)N1C1CCCC1	i	0.78	nt
COC/C=C/C1=CC2=CC(=O)C(C)(OC(=O)c3cnc4ccccc4n3)C(=O)C2=CN1c1cccc(C#N)c1 (stereo unspecified)	i	0.86	nt
COc1cccc(N2[C@@H](CC(=O)O)c3ccc(/C=C/C(=O)O)cc3S2(=O)=O)c1	i	0.79	nt
O=S1(=O)CCOC[C@H](Cc2ccccc2)N1Cc1ccc(Cl)cc1	i	0.71	nt
CC1(C)CC[C@]2(CO)[C@@H](O)C[C@]3(C)C(=CCC4[C@@]5(C)CC[C@H](O)C(C)(C)C5CC[C@]43C)[C@@H]2C1 (stereo partly specified)	i	0.9	nt
c1ccc(-c2ccc3sccc3n2)cc1	i	0.82	nt
CCO[C@@H]1OC(C(N)=O)=C[C@H](C2CC2)[C@H]1CCCO	i	0.76	nt

7 compounds from above, sorted by their value in HSV replic up primary fold, falling.
SMILES	HSV replic up	HSV replic up primary fold	RGS16-Gao
Cc1ccc(Cn2c(CCNc3nc(-c4ccc(Cl)c([N+](=O)[O-])c4)cs3)nc3cc(C(=O)NCCCO)ccc32)cc1	i	1	nt
COCC1=C(C(=O)OC(C)OC(=O)OC(C)C)N2C(=O)[C@@H](NC(=O)/C(=N\OC)c3csc(N)n3)[C@H]2SC1 (stereo partly specified)	i	0.93	nt
c1ccc(-c2nnc(C3CC(c4ccncc4)=NO3)o2)cc1 (stereo unspecified)	i	0.91	nt
CC1(C)CC[C@]2(CO)[C@@H](O)C[C@]3(C)C(=CCC4[C@@]5(C)CC[C@H](O)C(C)(C)C5CC[C@]43C)[C@@H]2C1 (stereo partly specified)	i	0.9	nt
CC(C)[C@H]1COCCS(=O)(=O)N1Cc1ccccc1F	i	0.84	nt
c1ccc(-c2ccc3sccc3n2)cc1	i	0.82	nt
O=C(NCc1nc2ccccc2[nH]1)C1=C[C@H](c2coc3ccccc3c2=O)C[C@H](OCCCCO)O1	i	0.73	nt

Next section.
SMILES	HSV replic up	HSV replic up primary fold	RGS16-Gao
O=c1[nH]c(N2CCOCC2)cc2ccccc12	i	1.3	nt
COc1ccc(-c2coc3cc(O)ccc3c2=O)cc1	i	1.1	nt
COc1ccc(C2C(C(C)=O)=C(O)C(=O)N2CCCn2ccnc2)cc1OC (stereo unspecified)	i	0.99	nt
O=C(NCc1cc(C(F)(F)F)cc(C(F)(F)F)c1)C1CC(c2ccc(C(F)(F)F)cc2)=NO1 (stereo unspecified)	i	0.79	nt
CCCCC[C@H](O)/C=C/[C@H]1[C@H](O)CC(=O)[C@@H]1CCCCCCC(=O)O	i	0.94	nt
O=C1c2ccccc2S(=O)(=O)c2cc(C(=O)N3CCN(c4c(Cl)cncc4Cl)CC3)ccc21	i	0.87	nt
CC1(C)C=Cc2cc(-c3coc4cc(O)cc(O)c4c3=O)cc(O)c2O1	i	0.88	nt
CCC(=O)c1ccc2c(c1)N(CCCN(C)C)c1ccccc1S2	i	0.58	nt
C=C1CCN([C@@H](Cc2ccccc2)C(=O)Nc2ccc(OC)cc2)S(=O)(=O)c2ccccc21	i	0.85	nt
CC1CCC(NC(=O)N(CCCl)N=O)CC1 (stereo unspecified)	i	0.81	nt
C=C1CCN([C@@H](CC(C)C)C(=O)NN2CCOCC2)S(=O)(=O)c2ccccc21	i	1	nt
CC(C)(C)CN1C(N)=NC[C@@H]1Cc1ccccc1	i	0.87	nt
CNC(=O)[C@@]1(Cc2ccccc2)C=C[C@@H](C)N1C(C)=O	i	1	nt
O=C(NCc1ccccc1)C1(C(F)(F)F)CC(CCCO)CCCO1 (stereo unspecified)	i	0.92	nt
O=C1c2cccc3c2[C@H](CCC3)CN1[C@@H]1CN2CCC1CC2	i	0.84	nt
O=C(O)CCCC[C@@H]1SC[C@@H]2NC(=O)N[C@@H]21	i	0.82	nt
O=C(O)c1ccc(-c2noc(-c3ccc(F)cc3)n2)cc1	i	0.88	nt
FC(F)(F)c1cc(CCN2CCNC[C@@H]2Cc2ccccc2)cc(C(F)(F)F)c1	i	0.71	nt
COC(C[C@@H]1O[C@H]1C(=O)COCc1ccccc1)OC	i	0.91	nt
CCOC(=O)C1=C(C)N(CCCC(=O)O)C(=O)NC1c1cccs1 (stereo unspecified)	i	0.72	nt
Fc1cccc(F)c1-c1nc2c(s1)CCc1onc(-c3ccc(Br)cc3)c1-2	i	0.94	nt
COC(=O)C1(CC2CC(c3ccccc3)=NO2)CCN(C(=O)OC(C)(C)C)CC1 (stereo unspecified)	i	1.2	nt
NC1CCN(c2cccc(Cl)n2)CC1	i	0.8	nt
Cc1nnc(SCCN2C(=O)c3ccccc3C2=O)nc1C	?	nt	nt
COc1ccc2c(c1)O[C@H]1c3ccc(O)cc3OC[C@@H]21	i	0.97	nt
COc1ccccc1CNC(=O)c1cnc2sccn2c1=O	i	0.68	nt
CN1CCN(C(=O)C2=C[C@H](C3CC3)C[C@H](OCc3ccc(CO)cc3)O2)CC1	i	0.96	nt
CCOC(=O)C[C@H]1c2ccc(C(F)(F)F)cc2S(=O)(=O)N1C(C)C	i	0.84	nt
Cc1ccc(Nc2[nH]c(=O)c3ccccc3c2C(=O)c2ccccc2)cc1	i	0.91	nt
CC(C)(C)n1nc(Cc2cccc3ccccc23)c(C#N)c1N	i	0.79	nt
CC1CCCN(S(=O)(=O)c2ccc(S(=O)(=O)N3CCCN(Cc4ccccc4)C3)cc2)C1 (stereo unspecified)	i	1	nt
COC(=O)C1=C(C)N(Cc2ccccc2)C(=O)N[C@H]1CCc1ccccc1	i	0.85	nt
CCOc1ccccc1-c1nc2c(s1)CCc1onc(-c3ccc(OC)cc3)c1-2	i	0.75	nt
COC(=O)C[C@H]1c2ccccc2S(=O)(=O)N1C(C)C	i	0.77	nt
CC1(C)c2[nH]c3ccccc3c2C[C@@H]2C(=O)N(Cc3ccco3)C(=O)N21	i	0.91	nt
COCCN1C(=O)N[C@@H](c2cccc(C(F)(F)F)c2)[C@H](C(C)=O)[C@H]1C	i	0.92	nt
O=c1cc(-c2ccc(O)cc2)oc2cc(O)cc(O)c12	i	1	nt
NC(=O)c1ccccc1Nc1nc(NCCO)nc(N2CCCC2)n1	i	0.73	nt
CCCCCCCCN1[C@@H](CC(=O)O)c2ccc(C(F)(F)F)cc2S1(=O)=O	i	0.97	nt
CC(C)(C)OC(=O)NCCCC1=CC2=CC(=O)C(C)(O)C(=O)C2=CO1 (stereo unspecified)	i	0.98	nt
CCOC(=O)/C=C/c1ccc(C(F)(F)F)cc1S(=O)(=O)NC(C)(C)C	i	0.67	nt
CC1(c2nnc(-c3ccncc3)o2)CC(c2cccc(Cl)c2)=NO1 (stereo unspecified)	i	0.95	nt
CCC(C)CCCCCCCCCCC(=O)O (stereo unspecified)	i	0.63	nt
CC1(OC(=O)c2ccco2)C(=O)C=C2C=C(c3ccsc3)OC=C2C1=O (stereo unspecified)	i	0.93	nt
O=S1(=O)CCOC[C@H](Cc2ccccc2)N1Cc1ccc(F)cc1	i	0.87	nt
